Screening data deposited in PubChem BioAssay by ICCB-Longwood Screening Facility, Harvard Medical School.
Sa helicase inh = S. aureus DNA helicase inhibition; 120,000 compounds, 0.05% hits; purified S. aureus helicase, fluorescence unwinding assay; about half of the hits fall short of the stated cut; inhibition, %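 (tested at about 80 µM)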; AID 485395;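 active = both duplicates at 50% or more, or one of them with a favoured structure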;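 also: 0% = mean of negative control wells and 100% = mean of positive control wells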
MgrA-DNA mod = alters Staphylococcus aureus MgrA binding to DNA | fluorescence polarization | inhibition, %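 (about 10 µg/mL by stock and volumes)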 | 84,000 compounds, 0.13% hits | AID 602314;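 active = above 50% in either of two replicates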;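 also: 0% = protein plus DNA without compound and 100% = DNA alone without protein; higher means less MgrA bound to DNA so lower polarization; one replicate is shown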
Numbers without * were called inactive; · = not tested or not shown. An excerpt; count on the stated rates, not on these rows.

Sa helicase inh	MgrA-DNA mod	smiles
2	-2.4	COc1cc(Cl)cc(C(=O)O)c1OCC(=O)O
-2	·	Cc1noc(C)c1CSc1ncccc1C(=O)NC1=NCCS1
0	1.4	COc1ccc2ccccc2c1-c1c(OC)ccc2ccccc12
11	-0.1	COc1ccc(N(C)S(=O)(=O)c2ccc3c(c2)CCN3C(=O)C2CCC2)c(OC)c1
·	-0.6	CCn1nc(C)cc1C(=O)NC1CCN(Cc2c(F)cccc2Cl)CC1
-3	·	O=C1CCc2cc(S(=O)(=O)NC(Cc3ccccc3)C(=O)Nc3ccc4c(c3)OCCO4)ccc2N1 (stereo not drawn)
26	0.0	O=C(COC(=O)c1sc2ccccc2c1Cl)NC1CCCC1
·	3.6	CCOc1cc(/C=C2/SC(=Nc3ccccc3)NC2=O)ccc1OC
·	-1.2	Fc1ccc2nsnc2c1
-17	·	CC(=O)N1CCOc2ccc(S(=O)(=O)N(C)c3cccc(C)c3)cc21
5	-3.1	O=C(COC(=O)c1ccccc1)c1ccccc1
7	0.3	O=C(NCC1CCCO1)c1cc2sc3ccccc3c2s1 (stereo not drawn)
7	6.7	CC1CCc2c(sc(/N=C/C=C/c3ccccc3)c2C#N)C1 (stereo not drawn)
8	-2.8	CCC(C(=O)NC(C)c1ccc2c(c1)OCO2)c1ccccc1 (stereo not drawn)
3	·	C=CCNC(=O)COc1ccc(CCC)cc1
-9	-1.1	O=C(CCCCn1cnc2ccccc21)c1ccccc1
2	-3.8	COCCNC(=O)CN1CCC(c2ccc(OC)cc2)C(O)C1 (stereo not drawn)
2	-4.8	O=C(c1cc(-c2ccccc2)on1)N1CCCCC1
16	·	COc1ccc(NC(=O)COC(=O)c2cc(=O)c3ccccc3o2)cc1
-9	·	O=C(CNS(=O)(=O)c1ccc2c(c1)OCCO2)c1ccc(Cl)cc1
2	·	Cc1cccc(NC(=O)c2ccn(C(=O)Oc3ccccc3)n2)n1
3	·	O=c1ccc(-c2ccc(S(=O)(=O)N3CCCC3)o2)n[nH]1
5	0.2	O=S(=O)(Cc1ccccc1)Nc1ccccc1
0	·	O=C(OCc1nc2ccccc2c(=O)[nH]1)c1cccs1
·	1.6	Cc1ccc(C)n1-c1cccc([N+](=O)[O-])c1
-11	·	Cc1ccc(C(=O)OCC(=O)c2ccccc2)s1
12	0.1	CCN1C(=O)c2ccccc2S(=O)(=O)c2ccc(C(=O)N3CCCC3)cc21
8	-0.1	Cc1c(C(=O)O)cnc2cc(-c3ccccc3)nn12
·	1.5	O=[N+]([O-])c1ccc(N2CCCCC2)cc1O
·	-3.0	COc1ccc2cc(/C(C)=N/OC(=O)c3cccs3)ccc2c1
10	-1.9	COc1ccccc1CNC(=O)Cn1cnc2ccc(S(=O)(=O)N3CCC(C)CC3)cc2c1=O
-14	·	CCOc1ccc(S(=O)(=O)Nc2cccc(-c3ccc4nncn4n3)c2)cc1
·	-1.9	Fc1cc(OCc2cnc(Cl)s2)ccc1Cl
16	-3.0	O=C(NC(Nc1cccc2ccccc12)C(=O)c1ccccc1)c1ccco1 (stereo not drawn)
8	·	CC(C)(C)N(C(=O)c1cc2ccccc2o1)C(=O)N1CCCCC1
-22	0.3	Cc1ccc(Cl)cc1NC(=O)COC(=O)C1CC1
8	0.6	CC1=CS(=O)(=O)CC1SC(=S)NC(C)C (stereo not drawn)
-10	3.3	O=C(Nc1ccc(Cl)cc1)c1sc2ccccc2c1Cl
-42	·	COC(=O)/C(C#N)=C/c1ccccc1C
-12	·	CC(C)(C)/C(=N/O)c1ccccc1
16	-0.2	Cc1cccc(CN2CCC(CNC(=O)c3cc4c(=O)[nH]c5ccc(C)cc5c4s3)CC2)c1
25	·	COc1cccc(C(=O)NCC(=O)N=Nc2c(O)n(Cc3ccc4c(c3)OCO4)c3ccccc23)c1
5	·	CC1CCCC(NC(=O)c2ccccc2C(=O)O)C1C (stereo not drawn)
·	-1.1	CSC(=CC(=O)c1ccc(Oc2ccccc2)cc1)SC
19	-0.5	O=C(O)CCC12CC3CC(CC(Br)(C3)C1)C2
15	-1.4	O=C(O)C1C2C=CC(C2)C1C(=O)Nc1ccc2ccccc2c1 (stereo not drawn)
7	·	CC(C)CN1C(=O)C=CC1=O
5	·	CCSc1nnc(-c2ccco2)n1N
8	-0.6	COC(=O)c1cc2sc3ccccc3c2s1
·	0.6	C#CC(C)(CC)OC(=O)NC(=O)c1c(F)cccc1Cl (stereo not drawn)
15	·	CNC(=O)COC(=O)c1cc(-c2ccc(C)o2)nc2ccccc12
-8	·	CCc1cc(OC(F)F)ccc1Cl
1	·	COC(=O)/C(O)=C/c1ccc(Cl)cc1
-7	·	O=C1CCCCCN1Cc1nnc(Sc2ncnc3cc(-c4ccc(Cl)cc4)sc23)o1
11	-2.0	COC(=O)C1=CN(CCc2ccc(OC)cc2)C=C(C(=O)OC)C1c1ccsc1
·	-1.5	Cc1csc(C(N)=O)c1Cl

Additional records
Sa helicase inh	MgrA-DNA mod	smiles
3	-4.3	Cc1ccc(CCP(=O)(O)CN2CCCCC2)cn1
-8	·	CCN(CC)CCCOc1ccccc1-c1ccccc1
-1	·	C=CCN1C(=O)/C(=C\N(C)C)S/C1=N/S(=O)(=O)c1cccs1
-24	·	CCc1ccc(NC(=O)c2cn(CC)c(=O)c3cc(OC)c(OC)cc23)cc1
-34	-1.3	CN1CCCC(OC(=O)c2cc(Br)ccc2Cl)C1 (stereo not drawn)
-6	·	COc1ccc(Br)cc1S(=O)(=O)Nc1ccc2cn[nH]c2c1
3	0.7	OCCOc1ccccc1OCCO
4	·	Fc1ccc(Cn2c(-c3ccco3)nc3ccccc32)cc1
8	·	Cn1cnc2cc(NCc3ccncc3)ccc21
·	3.1	O=C1NNC(c2ccccc2)C1c1ccccc1 (stereo not drawn)
1	-3.7	COC(=O)c1ccc(/C=C2/NC(=O)N(Cc3ccc(Br)cc3)C2=O)cc1
·	-1.4	O=C1NC(=Nc2ccccc2)S/C1=C/c1ccc(F)c(Br)c1
5	·	O=C(CSc1nccn1-c1ccccc1)Nc1ccc(OC(F)(F)F)cc1
-21	·	COCC(=O)NC(C)c1nc2ccccc2n1C (stereo not drawn)
10	-3.7	Cc1cc(OCc2nc(-c3ccncc3)no2)c(C)cc1Br
6	9.8	NC(N)=NN=C1CCC(=NN=C(N)N)CC1
·	-3.7	CCOC(=O)CSc1cc(-c2ccccc2)nc2ncnn12
·	2.0	CN1C/C(=C\c2ccc(C(F)(F)F)cc2)C2=NN(C)C(c3ccc(C(F)(F)F)cc3)C2C1 (stereo not drawn)
-9	·	Cc1ccc2n1CCn1cc(-c3ccc(Br)cc3)cc1-2
-12	·	COc1cc2nc(N3CCN(c4cc(C)ccc4C)CC3)nc(N)c2cc1OC
6	2.7	COC(=O)c1ccc(C2NN=C(c3ccccc3)S2)cc1 (stereo not drawn)
23	·	Cc1cc(=O)[nH]c(SCC(=O)c2ccc(O)c(O)c2)c1C#N
·	1.3	O=C(Oc1ccc(NC2=NS(=O)(=O)c3ccccc32)cc1)c1ccccc1Br
14	·	O=C(NCCC1=CCCCC1)c1ccccc1CSc1ncn[nH]1

The final eight entries of the part before are carried over, then new ones follow.
Sa helicase inh	MgrA-DNA mod	smiles
·	-3.7	CCOC(=O)CSc1cc(-c2ccccc2)nc2ncnn12
·	2.0	CN1C/C(=C\c2ccc(C(F)(F)F)cc2)C2=NN(C)C(c3ccc(C(F)(F)F)cc3)C2C1 (stereo not drawn)
-9	·	Cc1ccc2n1CCn1cc(-c3ccc(Br)cc3)cc1-2
-12	·	COc1cc2nc(N3CCN(c4cc(C)ccc4C)CC3)nc(N)c2cc1OC
6	2.7	COC(=O)c1ccc(C2NN=C(c3ccccc3)S2)cc1 (stereo not drawn)
23	·	Cc1cc(=O)[nH]c(SCC(=O)c2ccc(O)c(O)c2)c1C#N
·	1.3	O=C(Oc1ccc(NC2=NS(=O)(=O)c3ccccc32)cc1)c1ccccc1Br
14	·	O=C(NCCC1=CCCCC1)c1ccccc1CSc1ncn[nH]1
-2	0.8	Cc1nn(C(=O)c2ccccc2)c2c1C(=O)CC(C)(C)C2
29	·	CN(C)c1oc(-c2ccccc2F)nc1C#N
1	2.0	COC(=O)c1cc(-c2cccc(OC)c2)on1
·	4.2	Cc1noc(NS(=O)(=O)c2ccc(N)cc2)c1C
-9	·	CCn1nnc2cc(C(=O)NC(C)c3ccc(Cl)cc3)ccc21 (stereo not drawn)
6	·	O=C(CN(Cc1ccco1)S(=O)(=O)/C=C/c1ccccc1)Nc1ccc2c(c1)OCO2
9	·	CCOC(=O)c1cccc(Nc2nc(-c3ccccc3)no2)c1
6	0.5	Cn1c(=O)c2c(nc(Sc3nnc(N)s3)n2C)n(C)c1=O
-11	·	CC(c1nnc(-c2ccccc2)o1)N1CCC(c2nc3ccccc3s2)CC1 (stereo not drawn)
6	·	Cn1cc(SCC(=O)NCc2ccc3c(c2)OCO3)c2ccccc21
-1	·	Cc1ccccc1NC(=O)CSc1nc2ccc(N)cc2s1
18	·	Cc1ccc(OCc2nc(-c3ccc(C(=O)N4CCc5ccccc54)cc3)oc2C)cc1
·	-2.8	CC(NC(=S)Nc1ccc(Oc2ccc(Cl)cc2)cc1)c1ccccc1 (stereo not drawn)
-2	·	O=C(CSc1nnnn1C1CCCC1)N(c1ccccc1)C1CCCCC1
-24	·	O=S1(=O)CC(O)C(NC2CCNCC2)C1 (stereo not drawn)
6	·	O=S(=O)(c1ccc(F)cc1)N1CCSC1c1ccccc1 (stereo not drawn)
16	·	CCC(=O)Nc1nc(C2CCCCC2)cs1
-7	·	CCN(CC)c1nc(N)c(C#N)c(C(C#N)Cc2ccccc2)c1C#N (stereo not drawn)
7	0.5	CCC(Sc1nnc2sc3ccccc3n12)C(=O)OC (stereo not drawn)
-12	·	COc1cc(C(=O)Nc2ccc(N3CCOCC3)cc2)cc(CN2C(=O)c3ccccc3C2=O)c1OC
·	0.8	CC(C)N(Cc1ccccc1)C(=O)Nc1ccc(C(F)(F)F)cc1
-18	-0.5	COc1ccccc1N1CCN(c2ccc3ccccc3n2)CC1
-22	·	COc1cc2c(cc1OC)C1=C(C#N)CCC(=NC(=O)c3ccco3)N1CC2
-6	·	Cc1cccc(NC(=O)CN2C(=O)c3ccccc3S2(=O)=O)n1
·	0.1	NNC(=O)c1cc(CSc2ccc(Cl)cc2)on1
-2	·	N#CCCSc1ccccc1NC(=O)c1ccc2ncsc2c1
·	-1.7	Cc1cccc(C)c1Oc1ccc(C(F)(F)F)cc1[N+](=O)[O-]
-9	-0.2	CCOC(=O)C(CC)Sc1nnc(-c2ccc(C)cc2)n1C (stereo not drawn)
0	-1.1	CS(=O)(=O)c1ncc(CO)n1Cc1ccccc1
-24	·	COc1ccc(-c2nnc3n(CCc4ccccc4)c(=O)c4ccccc4n23)c(O)c1
9	·	Oc1nc(-c2ccc(Br)cc2)n2ccncc12
5	·	O=C(O)CCC(=O)NCC1OCCc2ccccc21 (stereo not drawn)

Overlap with the part before: 6 entries; new compounds follow.
Sa helicase inh	MgrA-DNA mod	smiles
·	-1.7	Cc1cccc(C)c1Oc1ccc(C(F)(F)F)cc1[N+](=O)[O-]
-9	-0.2	CCOC(=O)C(CC)Sc1nnc(-c2ccc(C)cc2)n1C (stereo not drawn)
0	-1.1	CS(=O)(=O)c1ncc(CO)n1Cc1ccccc1
-24	·	COc1ccc(-c2nnc3n(CCc4ccccc4)c(=O)c4ccccc4n23)c(O)c1
9	·	Oc1nc(-c2ccc(Br)cc2)n2ccncc12
5	·	O=C(O)CCC(=O)NCC1OCCc2ccccc21 (stereo not drawn)
·	0.0	COc1ccc(C(C)=O)cc1CSCC(=O)Nc1ccc(Cl)cc1
·	2.6	C/C(=N\O)c1cccc(Br)c1
4	3.5	Cc1cc(C)c(CSc2nnc(C)s2)c(C)c1
-15	·	CCCc1ccc(OCC(O)CNC(C)(C)C)cc1 (stereo not drawn)
23	·	COc1ccc(-c2nc(NC(=O)C3CC3)sc2C)cc1
-13	·	Cc1ccc(NS(=O)(=O)c2ccc(CN3C(=O)c4cccnc4C3=O)s2)nc1
·	-0.6	O=C(O/N=C/c1ccc2c(c1)OCO2)c1ccc(Cl)cc1Cl
-22	·	O=C(Cn1c(-c2cccs2)cc2ccccc21)NCCc1ccccc1
10	·	CC(C)CCNc1nccn(-c2ccc(Cl)cc2)c1=O
4	-0.5	CCOc1cc(CNC(CC)CO)c(Br)cc1OCC(N)=O (stereo not drawn)
-5	1.1	COc1ccc2c(c1)C(C)CC(C)(C)N2C(=O)Nc1ccc(Cl)cc1 (stereo not drawn)
-1	·	CC(C)(C)c1ccc(S(=O)(=O)N2CCNC(=O)C2)cc1
19	·	Cc1cc(C)cc(N/C(N)=N\c2nc(C)cc(C)n2)c1
4	·	C[C@H](NC(=O)c1ccc(Br)cc1)C(=O)O
5	·	COc1ccc(C(=O)OC(COc2ccccc2)Cn2ccnc2)cc1 (stereo not drawn)
9	·	CC(=O)NC(C)Cc1c[nH]c2ccccc12 (stereo not drawn)
3	2.4	O=c1c2ccccc2nc(SCc2c(F)cccc2F)n1Cc1ccccc1
·	0.0	COc1ccc(OC)c(S(=O)(=O)c2ccc(Br)cc2)c1
-14	·	O=C1CCCC/C1=C/Nc1nc(-c2ccccc2)cs1
-11	·	O=C(O)CC1(CC(=O)N2CCCC2)CCCCC1
-10	·	N#Cc1ccc(NC(=O)[C@@H]2CCCN2C(=O)c2cccs2)cc1
-7	·	O=c1[nH]n(CCO)c(=O)c2ccccc12
-8	·	CC(C)Nc1nccs1
-8	·	CC(C)(C)NC(=O)CSc1n[nH]c(-c2cccs2)n1
18	-0.2	Oc1[nH]c2ccccc2c1C=Nc1ccc2c(c1)CCC2
-10	·	O=C(OCc1ccccc1Cl)c1cccnc1Cl
13	·	CSc1ccccc1C(=O)OCC(=O)Nc1ccc2[nH]c(=O)[nH]c2c1
11	14	COC(=O)c1sc2cc(NC(=S)Nc3ccn(C)n3)ccc2c1Cl
